Screening results: PubChem, several laboratories
Mtb growth: M. tuberculosis H37Rv growth inhibitors, H37Rv strain (AID 1626) | M. tuberculosis H37Rv growth inhibition; higher % means a stronger effect | inhibition, % at 10 µM; hits with a dose series show IC50 in µM | 220,000 compounds, 0.95% hits;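 active = confirmed in a dose series; inconclusive = inhibition above 80% but not taken into the dose series; inactive = below 80% or under 30% at every dose of the series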;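 note: bacteria incubated seven days before Alamar blue readout; 0% = bacteria only wells and 100% = bacteria with antibiotic wells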
RecA splice inh: Mtb RecA intein splicing inhibitors, primary screen, biochemical, fluorescence, HTS | cell-free RecA intein splicing | inhibition, %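 (about 9 µM by stock and volumes)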 | AID 2221, 2009 | 290,000 compounds, 0.75% hits; in the data active = inhibition above about 30%; inconclusive = no clear call, values can overlap the other calls;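 note: 0% = vehicle wells and 100% = reference inhibitor control wells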
Target sequence (P9WHJ3 whole entry, looked up, canonical isoform): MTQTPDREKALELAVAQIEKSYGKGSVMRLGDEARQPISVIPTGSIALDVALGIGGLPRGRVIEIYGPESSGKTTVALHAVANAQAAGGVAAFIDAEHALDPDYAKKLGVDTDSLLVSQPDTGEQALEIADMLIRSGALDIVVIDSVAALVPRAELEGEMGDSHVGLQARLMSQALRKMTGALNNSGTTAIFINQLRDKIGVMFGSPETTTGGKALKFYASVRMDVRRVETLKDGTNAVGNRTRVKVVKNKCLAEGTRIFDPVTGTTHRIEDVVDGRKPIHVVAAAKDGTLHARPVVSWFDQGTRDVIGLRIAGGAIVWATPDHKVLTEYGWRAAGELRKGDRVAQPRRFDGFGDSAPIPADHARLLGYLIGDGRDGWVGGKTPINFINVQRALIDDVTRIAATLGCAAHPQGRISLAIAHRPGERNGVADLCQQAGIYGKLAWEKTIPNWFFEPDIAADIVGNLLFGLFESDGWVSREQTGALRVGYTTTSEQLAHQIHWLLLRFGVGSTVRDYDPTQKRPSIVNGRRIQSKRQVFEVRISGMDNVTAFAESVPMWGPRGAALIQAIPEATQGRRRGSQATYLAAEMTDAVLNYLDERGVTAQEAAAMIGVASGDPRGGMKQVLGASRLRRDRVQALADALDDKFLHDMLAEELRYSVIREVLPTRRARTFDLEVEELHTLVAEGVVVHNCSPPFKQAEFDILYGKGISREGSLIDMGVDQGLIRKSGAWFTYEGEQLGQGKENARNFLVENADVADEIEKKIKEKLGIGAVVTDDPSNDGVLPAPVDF
YopH inh: YopH tyrosine phosphatase inhibitors, primary screen, biochemical, fluorescence Ex485/Em525; inhibition, %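 (about 10 µM by stock and volumes)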; 140,000 compounds, 0.16% hits; AID 898, 2007; YopH tyrosine phosphatase [Yersinia enterocolitica];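 active = inhibition of 50% or more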;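 note: controls were vehicle for no effect and minimum signal wells for full effect; inactives centre near -20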
Mtb betalactam: beta-lactam sensitization of Mtb H37Rv, H37Rv | inhibition, % at 25 µM | M. tuberculosis H37Rv growth with meropenem, percent inhibition; hits of this screen are not shown here | 330,000 compounds, 0.27% hits;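 active = about 74% or more and at least 40 points above the plate without the antibiotic, then above 30% in a dose series; inconclusive = first-round hits that could not be retested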;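 note: growth measured after seven days incubation then overnight dye step; 0% = bacteria only wells and 100% = bacteria with antibiotic; twin plates without the antibiotic show which effects depend on it; some results filed as inactive read as strong as hits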
Arbovirus inh: antivirals against arbovirus infection, primary screen, cell-based, full library, 10K replicate subset | arbovirus infection cell-based antiviral screen | inhibition, % at 10 µM | 200,000 compounds, 0.37% hits;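 active = inhibition from about 30%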;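 note: bluetongue infection of BSR cells; cell survival read as ATP light after 72 h; 0% = infected wells without compound and 100% = uninfected wells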
Arbovirus inh repeat: recorded beside Arbovirus inh, whose call it bears; inhibition, %; measured here: 10K subset replicate screen; many hits read low in the repeat;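 first of two repeat runs on a subset; 0% = infected and 100% = uninfected wells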
Starred values were filed as active, the others as inactive; ? = inconclusive; · = not tested or not shown. A portion of the library (hit frequency here may not be typical).

Preview, 5 compounds:
SMILES	Mtb growth	RecA splice inh	YopH inh	Mtb betalactam	Arbovirus inh	others
CSCCC(NC(=O)c1ccccc1Br)C(=O)N1CCCC(C(F)(F)F)C1 (centres undefined)	·	-0.4	·	-15	·
O=C1/C(=C\c2ccsc2)NC(=S)N1c1ccccc1	-2%	-1.0	·	2	-4
CS(=O)(=O)N(Cc1ccccc1)c1ccc(C(=O)NCc2cccnc2)cc1	-8%	·	-3	6	3
O=C1CC(C(=O)Nc2ccccc2)C2(CCCCC2)O1 (centres undefined)	-8%	0.9	-23	-8	3
COc1ccc(-c2noc(N3CCCC(C(=O)Nc4cc(F)ccc4F)C3)n2)cc1 (centres undefined)	·	-4.0	·	-4	·

All compounds of this part, previewed entries included:
SMILES	Mtb growth	RecA splice inh	YopH inh	Mtb betalactam	Arbovirus inh	others
CSCCC(NC(=O)c1ccccc1Br)C(=O)N1CCCC(C(F)(F)F)C1 (centres undefined)	·	-0.4	·	-15	·
O=C1/C(=C\c2ccsc2)NC(=S)N1c1ccccc1	-2%	-1.0	·	2	-4
CS(=O)(=O)N(Cc1ccccc1)c1ccc(C(=O)NCc2cccnc2)cc1	-8%	·	-3	6	3
O=C1CC(C(=O)Nc2ccccc2)C2(CCCCC2)O1 (centres undefined)	-8%	0.9	-23	-8	3
COc1ccc(-c2noc(N3CCCC(C(=O)Nc4cc(F)ccc4F)C3)n2)cc1 (centres undefined)	·	-4.0	·	-4	·
COc1ccc(S(=O)(=O)NCCCCCC(=O)NCCCN2CCOCC2)cc1	-8%	2.0	3	0	-7
CCCCNS(=O)(=O)c1ccc2c(c1)oc(=O)n2CC(=O)OCC	0%	-0.6	-59	0	2
COC(=O)C(Cc1ccc(O)cc1)NC(=O)C1CCN(S(=O)(=O)c2ccc(C)cc2)CC1 (centres undefined)	·	-0.4	·	-12	·
Cc1[nH]c2ccccc2c1Cc1nnc(SCCC#N)o1	-11%	-3.3	-90	-3	-6
Cc1cc(C(F)(F)F)nn1CC(=O)NNC(=S)NCC(C)C	-1%	-0.5	-20	-11	0
COC(=O)c1ccc2c(=O)n(CCO)c(=S)[nH]c2c1	-1%	-0.3	-17	11	0
O=C(Cc1ccc(Br)cc1)N/N=C/c1ccc(-c2cccc(C(=O)O)c2)o1	-2%	-0.6	·	-1	·
CC1=CC2=NC(=O)/C(=C\c3cccn3CCOc3cc(C)ccc3C)C(=N)N2O1	12%	3.7	8	-2	0
CC(=O)Nc1ccc(NC(=O)CSc2ccc(-c3cccs3)nn2)cc1	-3%	0.4	·	4	0
Cc1cc(-n2nc(C)cc2C)nc(NS(=O)(=O)c2ccccc2)n1	1%	·	-53	21	9	Arbovirus inh repeat=2
N#Cc1cc(N2CCCCC2)c([N+](=O)[O-])cc1C#N	1%	2.5	-26	0	-12
O=C(NCCC(=O)N1CCN(c2ncccn2)CC1)c1ccccc1Cl	-3%	-4.4	-15	-13	7
COC(=O)c1ccccc1NC(=O)C1CCCN(S(C)(=O)=O)C1 (centres undefined)	-6%	-0.9	-9	-2	1
OCCN1CCN(Cc2cc(Cl)c3cccnc3c2O)CC1	-5%	-2.3	-18	16	-29
O=C(Oc1ccc(-n2cnnn2)cc1)c1ccco1	-8%	38*	-34	-4	2
COC(=O)c1c(C(=O)OC)c2n(c1C)CCS2	-17%	·	·	-8	·
CC(C)CNS(=O)(=O)c1ccc(CCC(=O)NCCc2ccccc2)cc1	·	1.1	·	-2	·
NC(=O)CS(=O)(=O)c1nc2ccccc2n1CC(=O)N1CCCCC1	-11%	-0.6	-6	2	7
CCOCC(O)CNC(=O)c1ccc2nc(Cc3ccc(OC)c(OC)c3)oc2c1 (centres undefined)	·	0.9	·	-2	·
NCCN=C1NS(=O)(=O)c2ccccc21	-2%	-0.7	-22	2	7
O=c1cc2c(nn1Cc1c(Cl)cccc1Cl)-c1ccccc1CC2	37%	0.6	0	64	8
O=c1c(Cl)c(N2CCCCC2)cnn1-c1nc2ccccc2[nH]1	0%	1.3	0	10	-12
COC(=O)C1=C(C)NC(C)=C(C(=O)OC)C1c1cc2cc(C)ccc2[nH]c1=O	-21%	-5.3	-11	-7	11
OCC(O)C1OC(Nc2ccc(Cl)cc2)C(O)C1O (centres undefined)	4%	3.8	·	0	·
CCCCn1c(=O)c(C(=O)Nc2ccccc2S(N)(=O)=O)c(O)c2ccccc21	-11%	-0.2	-30	-6	-14
CC(C)c1cc(N2CCOCC2)n2ncc(-c3ccccc3)c2n1	·	-2.5	·	6	·
Cc1nc2cc(-n3ccc(=O)cc3)ccc2n1-c1ccccc1	-5%	-2.2	10	6	1
COc1ccc(S(=O)(=O)N2CCC(Cc3ccccc3)CC2)cc1C(N)=O	·	-3.1	·	8	·
CC1CCN(S(=O)(=O)c2ccc3c(c2)N(CC(=O)NCCN2C(C)CCCC2C)C(=O)CS3)CC1 (centres undefined)	·	-2.3	·	-5	·
CCOC(=O)C1=C(C)N=c2sc(=C(C)C)c(=O)n2C1c1ccc(N(C)C)cc1 (centres undefined)	-8%	20	-30	2	·
O=C(CCC(=O)c1cccs1)NCC(=O)Nc1ccc(F)c(F)c1F	-2%	3.4	-18	1	3
CC(=O)Nc1ccc(Nc2cc(C)nc3c(-c4ccc(Cl)cc4)cnn23)cc1	11%	-0.5	-18	0	-2
CC(C)Oc1cc(NC(=O)CS(=O)CC(=O)N(C)C)c(Cl)cc1Cl (centres undefined)	4%	-2.4	·	-6	-1
COc1ccc(NS(=O)(=O)c2cccc(NC(=O)CCC(=O)c3cccs3)c2)cc1	-3%	-2.6	-34	-7	17
CC(CCc1ccccc1)NS(=O)(=O)c1ccccc1F (centres undefined)	·	1.7	·	10	·
O=C(O)/C=C/C(=O)Nc1ccc(SC(F)(F)F)cc1	-12%	15	-27	-11	7
CNC(=O)COc1coc(CN2CCN(c3ccccc3F)CC2)cc1=O	·	-2.3	·	3	·
Cc1nn(C)c(C(=O)NC2C3CC4CC(C3)CC2C4)c1Cl (centres undefined)	11%	4.6	-17	5	2
O=C(CSc1ccc2nnc(-c3ccccn3)n2n1)Nc1cccc(F)c1	·	4.6	·	?	·
O=C(c1c(F)cccc1Cl)N1CCN(c2ccccn2)CC1	·	0.5	·	-2	·
COc1ccc(NC(=O)C2CC(=O)N(CCc3ccc(F)cc3)C2)c(OC)c1 (centres undefined)	·	1.8	·	3	·
COC(=O)c1nn2c(C(F)(F)F)cc(-c3ccc(Br)o3)nc2c1Br	-9%	-1.7	-42	23	·
COc1ccc(C(C#N)N2CCOCC2)cc1 (centres undefined)	-2%	-0.1	-101	-18	-1
CCOc1ccc(/C=N/NC(=O)c2nnn(-c3nonc3N)c2CN(C)C2CCCCC2)cc1	·	-0.4	·	-4	·
COc1ccccc1-c1cc(C(=O)Nc2cc(C)on2)no1	-1%	12	-36	-2	-16
CCCNc1cc(C)oc(=O)c1C(=O)CC	-4%	-0.6	·	-3	-5
CCOC(=O)c1[nH]c2ccccc2c1N=CN(C)C	4%	-3.6	-22	0	·
Cn1c(OCc2ccco2)nc2c1c(=O)n(Cc1ccc(Cl)c(Cl)c1)c(=O)n2C	0%	0.2	-11	13	0
COc1ccc(C(C#N)C2(C)OCCO2)cc1OC (centres undefined)	-3%	-0.8	-20	-4	-4
CCCCC(=O)N/N=C/c1c(O)n(CCc2ccccc2)c(=O)[nH]c1=O	·	-1.6	·	-7	·
S=c1nc(-c2cc(Cl)cc(Cl)c2)[nH][nH]1	-1%	0.9	·	-7	·
O=C(N/N=C/c1ccccc1OC(F)F)NC1CCCCC1	1%	-11	·	5	·
O=C(CNC(=O)c1ccccc1Br)NCCSc1ccc(Br)cc1	·	4.2	·	-14	·
CCOC(=O)c1c(C)[nH]c(C)c1S(=O)(=O)N(C)CC(=O)Nc1ccc(C)cn1	·	-1.6	·	-7	·
O=C(Nc1ccc(NC(=S)NC(=O)c2cccs2)cc1)c1ccco1	-3%	0.9	·	48	1
New compounds follow
SMILES	Mtb growth	RecA splice inh	YopH inh	Mtb betalactam	Arbovirus inh	others
COc1ccc(N=C2SC(C(=O)Nc3ccc(C(=O)O)cc3)CC(=O)N2Cc2cccs2)cc1 (centres undefined)	-6%	-0.1	·	24	·
COCCNC(=S)N(CCc1c(C)[nH]c2ccccc12)Cc1cccnc1	·	-0.8	·	2	·
CSc1ccc(/C=C(\C(=O)O)c2ccc(S(=O)(=O)N3CCCCC3)s2)cc1	1%	2.4	-12	3	15
COc1cccc(N(CC(=O)NCc2cccnc2)S(C)(=O)=O)c1	-8%	-0.7	-41	8	6	Arbovirus inh repeat=1
COC(=O)C1=C(C)N(Cc2ccccc2)C(=O)N[C@H]1c1cccc(C(F)(F)F)c1	7%	1.5	·	-12	·
CC(C)(C)OC(=O)NCCCC[C@H](NC(=O)c1[nH]cnc1C(=O)Nc1ccc(CNC(=O)OC(C)(C)C)cc1)C(=O)OC(C)(C)C	20%	·	·	-12	·
CC(=O)c1ccc(NC(=S)N2CCN(C(=S)Nc3ccc(C(C)=O)cc3)C(C)C2)cc1 (centres undefined)	-6%	-2.3	·	1	6
Cc1ccc(NC(=O)CSc2nnc3c(n2)[nH]c2ccccc23)cc1	·	-1.8	·	-6	·
O=C(NC1CCCC1)C(c1cccnc1)N(Cc1ccc(F)cc1)C(=O)c1csnn1 (centres undefined)	·	-0.3	·	6	·
COc1ccc(-c2nc(CS(=O)CC(=O)N3CCC4(CC3)OCCO4)c(C)o2)cc1 (centres undefined)	-5%	0.2	-29	0	2
Cc1ccc2c(c1)N(C(=O)CCC(=O)NCCN1CCOCC1)CCO2	·	-3.5	·	-3	·
CSc1ccccc1C(=O)Nc1ncn[nH]1	·	-1.0	·	0	·

2 successive records out of the list so far, for reference:
SMILES	Mtb growth	RecA splice inh	YopH inh	Mtb betalactam	Arbovirus inh	others
CC(C)(C)OC(=O)NCCCC[C@H](NC(=O)c1[nH]cnc1C(=O)Nc1ccc(CNC(=O)OC(C)(C)C)cc1)C(=O)OC(C)(C)C	20%	·	·	-12	·
CC(=O)c1ccc(NC(=S)N2CCN(C(=S)Nc3ccc(C(C)=O)cc3)C(C)C2)cc1 (centres undefined)	-6%	-2.3	·	1	6

Carrying on.
SMILES	Mtb growth	RecA splice inh	YopH inh	Mtb betalactam	Arbovirus inh	others
COC(=O)c1ccc(S(=O)(=O)NCc2ccco2)n1C	-8%	·	·	-5	·
O=C1CS/C(=N/N=C/c2ccc(OS(=O)(=O)c3ccccc3)cc2)N1	0%	2.5	·	-6	3
CC1C(=NO)C(C)C(c2ccccc2)NC1c1ccccc1 (centres undefined)	4%	5.4	15	-2	-13
COc1ccccc1N1CCN(Cc2ccc(SC)cc2)CC1	·	-1.1	·	-7	·
CCN(CC)C(=O)c1ccc2c(c1)C1C(Cl)C(Sc3ccccc3[N+](=O)[O-])CC1C(C(=O)O)N2 (centres undefined)	-12%	36*	·	18	·
O=C(c1cccc(C(F)(F)F)c1)N1CCN(S(=O)(=O)c2ccc(Cl)s2)CC1	·	2.9	·	-5	·
O=C(O)c1cc(O)ccc1NC(=O)C(c1ccccc1)c1ccccc1	·	-13	·	3	·
O=C(CNC(=O)c1ccco1)N/N=C/c1ccc(C(=O)O)cc1	·	-2.8	·	2	·
COc1ccc(-c2nc(CN3CCC(C(=O)NC4CC4)CC3)c(C)o2)cc1OC	·	0.9	·	1	·
Cc1nc2ncnn2c(N2CCN(S(=O)(=O)c3ccc(Br)cc3)CC2)c1C	-4%	-0.6	·	-2	4
CC(C)Cc1nc2oc3c(Cl)ncnc3c2c2c1CCCC2	6%	·	·	17	·
CCn1ncc(Cl)c1C(=O)Nc1cc(Cl)ccc1Cl	1%	11	-27	-5	-13
Cc1ccc(NC(=O)CSc2ccc(-c3ccc4c(c3)OCO4)nn2)cc1F	2%	-2.1	-18	0	-22
CC(C)(C)c1cc(C(=O)NC2CC2)n(Cc2ccc(F)cc2)n1	7%	0.2	·	-4	·
Cc1ccc2c(c1)cc(CN(Cc1ccc3c(c1)OCO3)C(=O)c1ccccc1)c1nnnn12	-1%	-1.3	-43	-8	2
CC1CCN(S(=O)(=O)c2csc(C(=O)Nc3ccccc3)c2)CC1	-4%	4.4	-6	0	1
Cn1c(N2CCC(C(N)=O)CC2)nc2c1c(=O)n(Cc1cccc(Br)c1)c(=O)n2C	1%	-1.7	-5	5	1
CCCSC1=N/C(=C\c2ccc([N+](=O)[O-])o2)C(=O)S1	1%	·	·	·	0
COC(=O)C(C)N(c1ccc(OC)cc1)S(C)(=O)=O (centres undefined)	4%	-1.4	·	-2	-2
Cc1cc(NC(=O)CSc2nc(-c3ccc(Br)cc3)nc3c2c(=O)n(C)c(=O)n3C)no1	·	1.0	·	-15	·
C=CCNC(=O)c1oc2ccc(S(=O)(=O)N3CCC4(CC3)OCCO4)cc2c1C	·	1.9	·	-7	·
CSc1ccc(C(=O)NCC(c2ccco2)N(C)C)cc1[N+](=O)[O-] (centres undefined)	·	-0.1	·	-2	·
